Assay outcomes (PubChem BioAssay)
Ecoli rRNA inh = inhibitors of bacterial rRNA selective over humanized ribosomes; 350,000 tested, 1.6% active; GFP signal change (wild-type ribosome), % (concentration not given with the values); E. coli WT GFP vs humanized-ribosome RFP mutants, fluorescence, 24 h; stronger effect = lower value; DMSO median 0, no signal -100;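 active = significant combined selectivity score with lowered wild-type GFP, culture density cut under 30%, mutant RFP and density less affected; inactive = any of these conditions unmet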; also: one replicate is shown; some compounds called inactive have numbers as strong as hits
T cruzi inh = blocks replication of Trypanosoma cruzi; T. cruzi beta-gal in NIH3T3, luminescence, 90 h; inhibition, % (test concentration not listed); 300,000 tested, 1.4% active;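 active = mean inhibition across valid replicates above about 55%, limit read from the data; inconclusive = mean below that limit but half or more replicates reach it; inactive = mean below it, under half of replicates reach it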;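 also: signal also drops with host cell toxicity which is not excluded here; 0% = plate median of DMSO wells and 100% = zero luminescence signal; higher percent means less beta-gal luminescence so fewer parasites; stock transfer was 50 nL into about 50 µL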
MLL AF4-AF9 inh = inhibitors of human MLL-AF4/AF9 interaction. P42568. AlphaScreen, biotin-AF4 peptide binding to FLAG-AF9. inhibition, % at 10 µM. 350,000 tested, 0.47% active. AID 651704;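 active = every replicate reaching a set inhibition limit, whatever the replicate mean, cut at about 25% in these data; inconclusive = mean inhibition reaches that limit but some replicates miss it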;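 also: 0% = plate neutral control median and 100% = total signal loss; the record names both 10 and 1 µM as test concentration; the first replicate is given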
Target sequence (P42568 whole entry, looked up): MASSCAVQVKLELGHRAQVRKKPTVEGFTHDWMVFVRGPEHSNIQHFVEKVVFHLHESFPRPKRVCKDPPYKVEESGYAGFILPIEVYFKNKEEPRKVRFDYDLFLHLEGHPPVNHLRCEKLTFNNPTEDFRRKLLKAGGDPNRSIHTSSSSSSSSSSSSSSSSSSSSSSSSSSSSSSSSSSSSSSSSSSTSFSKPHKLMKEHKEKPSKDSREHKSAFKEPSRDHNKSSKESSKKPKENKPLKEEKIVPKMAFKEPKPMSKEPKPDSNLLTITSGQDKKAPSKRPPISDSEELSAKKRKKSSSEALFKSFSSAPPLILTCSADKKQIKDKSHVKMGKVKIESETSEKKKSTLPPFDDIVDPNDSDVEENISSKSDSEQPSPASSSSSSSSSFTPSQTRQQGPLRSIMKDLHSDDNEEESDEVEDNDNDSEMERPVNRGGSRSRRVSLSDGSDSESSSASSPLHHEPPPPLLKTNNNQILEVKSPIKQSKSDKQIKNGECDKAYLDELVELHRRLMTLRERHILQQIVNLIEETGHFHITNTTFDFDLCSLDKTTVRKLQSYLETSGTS
Beta apoptosis = beta cell apoptosis inhibition | INS-1E cytokine-induced death, ATP luminescence, 48 h; percent of positive-control rescue, neutral wells zero | protection from apoptosis, % (concentration not given with the values) | 300,000 tested, 0.8% active;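 active = all replicates at 75% or more, or half of them and the mean; inconclusive = half reach 75% but not the mean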;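 also: 0% = cytokine-treated negative control wells and 100% = positive control rescue; higher means more ATP so stronger rescue from cytokine killing; wells of about 40 µL received 100 nL stock; the first replicate is given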
RanGTP-Impb inh = disruptors of Ran-importin-beta complex formation – biochemical, FRET, CFP-Ran, YFP-importin-beta, homogeneous, primary screen. cell-free CFP-Ran/YFP-importin-beta FRET ratio. inhibition, % (test concentration not listed). 300,000 tested, 1.1% active. AID 2216;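 active = most replicates above 15%; inconclusive = exactly half above 15%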;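 also: 0% = DMSO wells and 100% = Ran loaded with GDP instead of GTP; wells of about 40 µL received 100 nL stock; the first replicate is given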
Vif A3G = inhibitors of Vif binding to APOBEC3G peptide, primary screen, biochemical, TR-FRET, GST-Vif 1-94, biotin-A3G peptide, dose response retest (AID 1117319); TR-FRET GST-Vif / biotin-A3G peptide binding; higher % means a stronger effect; test concentration not given here; strong numbers were not always called active; inhibition, %; hits with a dose series show IC50 in µM; 260,000 tested, 0.57% active;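 active = above the screen mean plus three standard deviations and confirmed in dose response; inconclusive = results disagree or hit not tested in dose response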;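 also: Vif residues 1-94 fused to GST binding biotinylated APOBEC3G peptide 110-148; 0% = full assay without inhibitor and 100% = GST in place of GST-Vif; retest series ran down from 100 µM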
Calb FLC = C. albicans growth modulation with fluconazole | C. albicans CaCi-2 (fluconazole-resistant clinical isolate) + fluconazole, Alamar Blue growth, 48 h | 300,000 tested, 0.57% active | growth inhibition, % (no concentration beside the values);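 active = most replicates above 75%; inconclusive = exactly half above 75%; inactive = most below 75%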;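 also: all wells also contain fluconazole at 8 µg/ml as a sub-toxic cotreatment; 0% = median of DMSO wells and 100% = median of geldanamycin control wells; wells of about 8 µL received 7.5 nL stock; the first replicate is given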
Bfl-1 A1 inh = inhibitors of the anti-apoptotic protein A1, read as caspase activation | MEF A1-2A-BIM cells, Caspase-Glo 3/7 luminescence, 3 h; percent of clofoctol response, vehicle zero | caspase activation, % (no concentration beside the values) | 330,000 tested, 0.066% active;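 active = over half of replicate activation scores above 10%, or exactly half above 10 with the replicate mean above 10; inconclusive = replicate mean below 10 yet half the replicates above 10; inactive = over half of replicates below 10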;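 also: wells of about 30 µL received 50 nL stock; many hits fall short of the cut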
Ecoli rRNA inh OD600 = recorded beside Ecoli rRNA inh, whose call it bears; OD600 change, %; measured here: OD600 growth;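 optical density of the mix in the first replicate; 0 = DMSO median and -100 = no signal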
Ecoli rRNA inh RFP = further read-out of Ecoli rRNA inh, marked with its call; RFP signal change, %; measured here: RFP humanized mutant strains;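 first replicate; 0 = DMSO median and -100 = no signal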
* hit, by the source's call.

Cc1ccc(Cl)cc1NC1=NC(=S)N(C(C)C)C12CCCCC2 was read as T cruzi inh 7.6, Beta apoptosis 9.5, RanGTP-Impb inh -10.4, Vif A3G 6.7%, Calb FLC 6.1 and Bfl-1 A1 inh -0.1.
For C=CCOc1ccccc1CN1CCC(n2nccc2NC(=O)c2ccccc2)CC1 the results were Ecoli rRNA inh 2.9, T cruzi inh 7.9, MLL AF4-AF9 inh 0.3, Beta apoptosis 1.8, RanGTP-Impb inh 1.8, Calb FLC -26.9, Bfl-1 A1 inh -0.5, Ecoli rRNA inh OD600 1.9 and Ecoli rRNA inh RFP -3.2.
`COC(=O)c1ccc(SCC(=O)NC2CCCC2)c([N+](=O)[O-])c1` gave T cruzi inh -3.1, Beta apoptosis 3.2, RanGTP-Impb inh 1.8, Calb FLC -29.6 and Bfl-1 A1 inh inconclusive.
For CCOc1ccc(NC(=O)Nc2ccc3nccnc3c2)cc1 the results were T cruzi inh -18.1, Beta apoptosis -6.0, RanGTP-Impb inh -2.1, Vif A3G 5.0%, Calb FLC -3.3 and Bfl-1 A1 inh -1.7.
For CC1(C)OC(=O)C(=NNc2ccccc2)C(=O)O1 the results were T cruzi inh -20.3, Beta apoptosis -5.9, RanGTP-Impb inh -4.7, Vif A3G 3.3%, Calb FLC -1.1 and Bfl-1 A1 inh 0.1.
CCn1c(=O)cc(SCC(=O)NCc2cccnc2)c2ccccc21 was read as T cruzi inh -27.4, Beta apoptosis -2.6, RanGTP-Impb inh -2.1, Vif A3G inconclusive, Calb FLC -3.6 and Bfl-1 A1 inh -0.8.
`CCOCC(=O)Nc1cc(C(=O)OC)cc(C(=O)OC)c1` gave Ecoli rRNA inh 11.1, T cruzi inh 4.5, MLL AF4-AF9 inh -1.1, Beta apoptosis 2.0, RanGTP-Impb inh 3.4, Calb FLC 0.6, Bfl-1 A1 inh 0.9, Ecoli rRNA inh OD600 6.3 and Ecoli rRNA inh RFP -3.3.
Screening COc1ccc(N=C2SCC(=O)N2c2ccc(OC)cc2)cc1 returned Ecoli rRNA inh -10.5, T cruzi inh -7.8, MLL AF4-AF9 inh -35.7, Beta apoptosis -6.1, RanGTP-Impb inh -0.5, Vif A3G -4.5%, Calb FLC -8.4, Bfl-1 A1 inh 0.1, Ecoli rRNA inh OD600 -10.8 and Ecoli rRNA inh RFP -0.5.
Screening FC(F)(F)c1cccc(NC(=S)N(CCCN2CCCC2)Cc2cccn2Cc2ccc(Cl)cc2)c1 returned Ecoli rRNA inh -42.1, T cruzi inh 71.0*, MLL AF4-AF9 inh 14.9, Beta apoptosis 27.5, RanGTP-Impb inh inconclusive, Vif A3G 8.3%, Calb FLC -2.9, Bfl-1 A1 inh 2.0, Ecoli rRNA inh OD600 -65.0 and Ecoli rRNA inh RFP 0.8.
`Cc1ccc(-c2csc3ncnc(-n4nnc5ccccc54)c23)cc1C` gave Ecoli rRNA inh -34.6, T cruzi inh -8.5, MLL AF4-AF9 inh 0.3, Beta apoptosis -4.0, RanGTP-Impb inh -3.0, Vif A3G 1.3%, Calb FLC -7.4, Bfl-1 A1 inh -0.3, Ecoli rRNA inh OD600 -59.7 and Ecoli rRNA inh RFP -13.5.
Screening Cn1c(SCC(=O)N2CCOCC2)nc(O)cc1=O returned T cruzi inh -6.5, Beta apoptosis -1.6, RanGTP-Impb inh 0.8, Vif A3G -4.4%, Calb FLC 32.4 and Bfl-1 A1 inh 0.6.
Screening Cc1ccc(-c2nnc(SCC(=O)NCC3CCCO3)n2C)cc1 (stereo unspecified) returned T cruzi inh -9.1, Beta apoptosis 1.7, RanGTP-Impb inh 0.8, Vif A3G 1.5%, Calb FLC 6.4 and Bfl-1 A1 inh 0.1.
For COc1ccc(N2CCN(C(=O)CNS(=O)(=O)c3ccc(C)cc3)CC2)cc1 the results were Ecoli rRNA inh 3.2, T cruzi inh -3.0, MLL AF4-AF9 inh 3.2, Beta apoptosis -7.9, RanGTP-Impb inh 6.7, Vif A3G 2.3%, Calb FLC 4.3, Bfl-1 A1 inh -0.6, Ecoli rRNA inh OD600 2.2 and Ecoli rRNA inh RFP 4.5.
Screening CC[n+]1ccc(C(=O)NCc2ccccc2)cc1 returned Ecoli rRNA inh 14.1, T cruzi inh -3.1, MLL AF4-AF9 inh -0.3, Beta apoptosis -1.2, RanGTP-Impb inh -0.8, Vif A3G 18.4%, Calb FLC -5.5, Bfl-1 A1 inh 0.6, Ecoli rRNA inh OD600 4.7 and Ecoli rRNA inh RFP -2.0.
CCCNC(=O)C1CNc2ccccc2O1 (stereo unspecified) was read as T cruzi inh -4.0, Beta apoptosis -1.1, RanGTP-Impb inh -0.8, Vif A3G 1.9%, Calb FLC 4.1 and Bfl-1 A1 inh 0.1.
For O=C(Nc1ccc(OC(F)(F)F)cc1)C1CC(=O)N(Cc2ccco2)C1 (stereo unspecified) the results were Ecoli rRNA inh 3.9, MLL AF4-AF9 inh -1.4, Beta apoptosis -2.5, Bfl-1 A1 inh 1.6, Ecoli rRNA inh OD600 6.4 and Ecoli rRNA inh RFP -1.0.
C#CCN(CC=C)C(=O)c1ccc2nc(C3CCCCC3)oc2c1 was read as Ecoli rRNA inh -20.1, T cruzi inh 2.9, MLL AF4-AF9 inh -1.4, RanGTP-Impb inh -1.7, Calb FLC 3.6, Bfl-1 A1 inh -0.6, Ecoli rRNA inh OD600 -30.0 and Ecoli rRNA inh RFP -4.0.
`NC(=O)c1ccccc1NC(=S)NC(=O)CCc1ccccc1` gave T cruzi inh -45.9, Beta apoptosis -0.1, RanGTP-Impb inh 2.1, Calb FLC 2.0 and Bfl-1 A1 inh 0.9.
C/C=C(\C)C(=O)N[C@@H](C)CN1C2=NC[C@H](C(C)C)N2C[C@H]1Cc1ccc(OC)cc1 was read as Ecoli rRNA inh 8.2, T cruzi inh 8.2, MLL AF4-AF9 inh 1.9, RanGTP-Impb inh -1.2, Vif A3G 3.0%, Calb FLC -23.1, Ecoli rRNA inh OD600 7.0 and Ecoli rRNA inh RFP 2.1.
Cc1oc(-c2ccccc2)nc1CSc1nc2c(c(=O)[nH]1)CCC2 was read as Ecoli rRNA inh -4.0, T cruzi inh -4.0, MLL AF4-AF9 inh 6.3, Beta apoptosis -2.8, RanGTP-Impb inh inconclusive, Vif A3G -7.2%, Calb FLC -9.3, Bfl-1 A1 inh 0.9, Ecoli rRNA inh OD600 67.0 and Ecoli rRNA inh RFP 10.4.
`COc1ccc2[nH]cc(CCNS(=O)(=O)c3ccccc3)c2c1` gave Ecoli rRNA inh -17.6, T cruzi inh -14.0, MLL AF4-AF9 inh 4.7, RanGTP-Impb inh -2.0, Vif A3G -1.5%, Calb FLC 2.9, Bfl-1 A1 inh -0.3, Ecoli rRNA inh OD600 -21.1 and Ecoli rRNA inh RFP -0.5.
Cc1cccc(NC(=O)c2ccc(S(=O)(=O)N(C)CC3CCCO3)cc2)c1C (stereo unspecified) was read as Ecoli rRNA inh -0.9, T cruzi inh -5.3, MLL AF4-AF9 inh -2.7, Beta apoptosis -2.4, RanGTP-Impb inh -0.2, Vif A3G -5.6%, Calb FLC 0.1, Bfl-1 A1 inh -0.4, Ecoli rRNA inh OD600 1.2 and Ecoli rRNA inh RFP -3.3.
`O=C(N/N=C/C(Cl)=C/c1ccccc1)c1ccccn1` gave Ecoli rRNA inh -15.2*, T cruzi inh 0.2, MLL AF4-AF9 inh 0.6, Beta apoptosis 2.8, RanGTP-Impb inh 22.2, Vif A3G 2.8%, Calb FLC -3.8, Bfl-1 A1 inh -4.3, Ecoli rRNA inh OD600 5.9* and Ecoli rRNA inh RFP -5.0*.
`CC1CCCN(CCCNC(=O)c2coc3nc4ccccc4nc23)C1` (stereo unspecified) gave T cruzi inh -18.6, Beta apoptosis -5.8, RanGTP-Impb inh 7.3, Vif A3G 2.0%, Calb FLC 22.5 and Bfl-1 A1 inh -1.6.
For Cn1c(=O)c2c(nc(NCCc3ccccc3)n2CC(=O)NCCc2ccccc2)n(C)c1=O the results were T cruzi inh 31.1, Beta apoptosis 1.9, RanGTP-Impb inh 2.6, Vif A3G 0.2%, Calb FLC 2.3 and Bfl-1 A1 inh -0.4.
Screening O=C(COc1ccc(S(=O)(=O)N2CCCC2)cc1Cl)NC1CCCC1 returned T cruzi inh 2.1, Beta apoptosis -1.6, RanGTP-Impb inh 1.9, Vif A3G 0.4%, Calb FLC -5.5 and Bfl-1 A1 inh -0.1.
For O=C(COc1ccccc1)Nc1nnc(-c2ccco2)o1 the results were Ecoli rRNA inh 23.1, T cruzi inh -12.3, MLL AF4-AF9 inh 1.4, Beta apoptosis 0.3, RanGTP-Impb inh -0.9, Vif A3G -15.8%, Calb FLC -5.8, Bfl-1 A1 inh 0.4, Ecoli rRNA inh OD600 2.3 and Ecoli rRNA inh RFP 2.4.
`Cc1ccc(O)c(Cn2nnc3ccccc32)c1` gave Ecoli rRNA inh -18.5, T cruzi inh 21.4, MLL AF4-AF9 inh -5.1, Beta apoptosis -3.5, RanGTP-Impb inh 1.7, Calb FLC 2.3, Bfl-1 A1 inh -1.3, Ecoli rRNA inh OD600 -28.7 and Ecoli rRNA inh RFP 5.6.
`CN(Cc1ccccc1)S(=O)(=O)c1cccc2cccnc12` gave T cruzi inh 5.9, Beta apoptosis -0.8, RanGTP-Impb inh 1.0, Vif A3G inconclusive, Calb FLC inconclusive and Bfl-1 A1 inh -0.8.
For Cc1onc(-c2c(Cl)cccc2Cl)c1C(=O)NNc1ccccc1 the results were Ecoli rRNA inh 0.8, T cruzi inh 29.6, MLL AF4-AF9 inh 2.8, Beta apoptosis -3.5, RanGTP-Impb inh -1.4, Calb FLC 1.9, Bfl-1 A1 inh 0.9, Ecoli rRNA inh OD600 -1.5 and Ecoli rRNA inh RFP -1.6.
For CCCSc1nc(SCC(=O)NCc2ccccc2)c2c3c(sc2n1)COC(C)(C)C3 the results were T cruzi inh -20.0, Beta apoptosis -1.7, RanGTP-Impb inh 2.7, Vif A3G 28.0%, Calb FLC 0.9 and Bfl-1 A1 inh 1.9.
O=C(NNC(=O)C1CCN(S(=O)(=O)c2ccccc2C(F)(F)F)CC1)c1ccccc1O was read as Ecoli rRNA inh -9.6, T cruzi inh 2.2, MLL AF4-AF9 inh 3.3, Beta apoptosis 10.9, RanGTP-Impb inh -2.9, Vif A3G -6.9%, Calb FLC -13.9, Bfl-1 A1 inh -0.3, Ecoli rRNA inh OD600 -7.5 and Ecoli rRNA inh RFP -0.7.
C=CCn1c(SC2CCOC2=O)nc2sc(CC)cc2c1=O (stereo unspecified) was read as Beta apoptosis -3.4, Vif A3G 0.5%, Calb FLC -1.5 and Bfl-1 A1 inh 1.1.
N#Cc1ccc(C23CC4(C2)[C@H](CN(CC2CCCCC2)[C@@H]4c2ccccc2)C3c2ccc(Cl)nc2)cc1 (stereo partly specified) was read as Ecoli rRNA inh 4.0, T cruzi inh 17.8, MLL AF4-AF9 inh 1.4, Beta apoptosis 2.1, RanGTP-Impb inh -1.0, Vif A3G 15.7%, Calb FLC 7.0, Bfl-1 A1 inh -0.8, Ecoli rRNA inh OD600 -9.9 and Ecoli rRNA inh RFP 12.1.

The list is partial; rates above refer to the full screens.
